High-throughput results: PubChem, ICCB-Longwood Screening Facility, Harvard Medical School
Polio RdRp inh: poliovirus RNA polymerase inhibition. P03300. poliovirus polymerase elongation, fluorescence polarization; hits give low values. % elongation, % (compound at 16.7 µg/mL). actives 0.66% (n = 150,000); in the data active = % elongation below about 90%; note: some results filed as inactive read as strong as hits
Mtb MbtI inh: inhibitors of Mycobacterium tuberculosis siderophore enzyme MbtI | AID 493033 | actives 0.89% (n = 100,000) | purified MbtI enzyme, fluorescence intensity read-out | P9WFX0 | inhibition, %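 (about 17 µg/mL by stock and volumes)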;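 active = above 50% in both replicates, above 80% if mildly self-fluorescent; inactive = the rest, strongly fluorescent compounds included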;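 note: 0% = mean of negative and 100% = mean of positive controls; one replicate is shown; some compounds called inactive have numbers as strong as hits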
Target sequence (P9WFX0 whole entry, looked up): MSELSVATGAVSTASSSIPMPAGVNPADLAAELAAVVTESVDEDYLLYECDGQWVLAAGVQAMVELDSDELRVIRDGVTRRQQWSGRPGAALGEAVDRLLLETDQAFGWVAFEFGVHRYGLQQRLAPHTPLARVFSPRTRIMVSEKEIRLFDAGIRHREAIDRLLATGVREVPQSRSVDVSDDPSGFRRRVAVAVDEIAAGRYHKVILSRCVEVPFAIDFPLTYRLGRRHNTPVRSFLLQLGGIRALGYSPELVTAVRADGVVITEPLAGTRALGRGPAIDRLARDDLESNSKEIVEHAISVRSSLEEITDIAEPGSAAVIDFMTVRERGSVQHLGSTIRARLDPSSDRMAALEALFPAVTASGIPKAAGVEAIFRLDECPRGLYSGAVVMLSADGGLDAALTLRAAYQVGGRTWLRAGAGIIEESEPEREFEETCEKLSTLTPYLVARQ
Mtb MenB inh: Mtb MenB enzyme inhibition; MenB enzyme assay, absorbance read-out; some hits fall short of the stated cut; inhibition, %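 (about 12 µg/mL by stock and volumes)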; AID 540299; actives 0.43% (n = 100,000); P9WNP5;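 active = mean of two replicates above 30%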;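 note: 0% = no compound and 100% = wells with inactive enzyme; the first replicate is given; strong numbers were not always called active; inactives centre near -10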
Target sequence (P9WNP5 whole entry, looked up): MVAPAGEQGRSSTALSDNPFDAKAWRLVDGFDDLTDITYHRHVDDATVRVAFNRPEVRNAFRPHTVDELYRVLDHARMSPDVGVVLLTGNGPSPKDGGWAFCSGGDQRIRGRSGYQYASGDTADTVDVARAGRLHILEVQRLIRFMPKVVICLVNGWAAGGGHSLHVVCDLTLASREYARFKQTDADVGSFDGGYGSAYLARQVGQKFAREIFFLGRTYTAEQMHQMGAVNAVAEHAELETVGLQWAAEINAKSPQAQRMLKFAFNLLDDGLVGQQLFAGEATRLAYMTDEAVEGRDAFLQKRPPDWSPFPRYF
Polio RdRp inh intensity: second read-out of Polio RdRp inh, no call of its own (marks repeat the call); % elongation; measured here: total intensity read-out; formula for this scale not given here;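 total fluorescence in place of polarization; lower means less elongation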
* hit, by the source's call; i = inactive; nt = no result given. No enrichment for hits; 1.7% or so of the library scored in one or more.

compound,Polio RdRp inh,Polio RdRp inh intensity,Mtb MbtI inh,Mtb MenB inh
CC1CCCCN1C(=O)COc1ccc2oc3ccccc3c2c1 (configuration not stated),100,105,-15,-24
CCCn1nc(NC(=O)CCC(=O)O)c2cc3cccc(C)c3nc21,104,99,-1,-53
COc1ccc(C(=O)NCC23C=CC(O2)C2C(=O)N(c4ccccc4C)C(=O)C23)cc1 (configuration not stated),103,101,65*,-1
O=C(N/C=C/c1ccsc1)Sc1cc(C(F)(F)F)cc(C(F)(F)F)c1,106,115,4,-38
CCN(CCC#N)c1ccccc1,100,103,-23,-3
CC1(CSc2ccccc2C(=O)O)NC(=O)NC1=O (configuration not stated),nt,nt,-8,-14
Cc1ccccc1NC(=O)CN1C(=O)c2ccccc2C1=O,101,107,-3,-10
CC1CCCC(NC(=O)Cn2ncc(Cl)c(Cl)c2=O)C1C (configuration not stated),100,94,20,-5
Cc1ccc(/C(O)=C/c2nc3ccccc3[nH]2)cc1,91,94,2,-2
Cc1ccccc1-n1c(Cn2c(=O)sc3ccccc32)n[nH]c1=S,103,109,4,-73
CN1CCN(c2nc(-c3cccs3)cc(C(F)(F)F)n2)CC1,102,104,-6,-13
Cc1noc(C)c1CSc1ncccc1C(=O)Nc1sc2c(c1C#N)CCC(C)C2 (configuration not stated),102,103,18,-22
O=c1[nH]nc(-c2ncc[nH]2)c2ccccc12,105,101,nt,-14
CC(C1CC1)N1C(=O)C2C(C1=O)C1C=CC2C12CC2 (configuration not stated),101,103,-5,6
COC(=O)c1ccc(OC(=O)c2sccc2C)cc1,106,114,-6,-3
N#Cc1ccc(COC(=O)Cn2ccc(=O)[nH]c2=O)cc1,100,108,-5,-19
Cc1ccc(SCCC#N)cc1,105,102,-1,4
CCC(OC(=O)CN1C(=O)c2ccccc2C1=O)C(=O)NC1CCCC1 (configuration not stated),100,102,-7,8
COC(=O)C1=C(NNc2ncc(Cl)cc2C(F)(F)F)CSC1,102,101,18,-23
Nc1nonc1-c1nc2ccccc2n1CC(=O)N1CCN(c2ccc(F)cc2)CC1,99,108,nt,-16

(listing goes on)
compound,Polio RdRp inh,Polio RdRp inh intensity,Mtb MbtI inh,Mtb MenB inh
CCC1CCCN1Cn1cnc2c([nH]c3ccccc32)c1=O (configuration not stated),104,102,57,-7
N/C(=N\O)C(=O)Nc1ccccc1,104,101,nt,7
CC(C)OCC(O)CSc1nc2ccccc2s1 (configuration not stated),101,103,8,-25
O=C(Cn1c(C(=O)O)cc2ccccc21)c1ccccc1,102,100,8,-10
COc1ccc2sc(N(CCN(C)C)C(C)=O)nc2c1,102,105,-4,6
Cc1nnsc1-c1n[nH]c(C)c1C(=O)NN,104,106,9,1
Cc1ccc(S(=O)(=O)/N=C(\Nc2cc(C)on2)c2ccccc2)cc1,102,100,-1,-3
COc1ccccc1CN1CCCC(C(=O)N(C)Cc2ccccc2)C1 (configuration not stated),102,102,-1,8
O=C(NCc1ccc(Cl)cc1)c1cc2c(Cl)nc3ccccc3c2s1,103,100,25,7
CCN1CCN(C(C)C(=O)Nc2ccc3c(c2)OCO3)CC1 (configuration not stated),103,101,2,22
CCc1nnc2c(Nc3ccc4c(c3)OCCO4)nc3ccccc3n12,99,105,7,-6
COc1ccccc1CC(=O)N1CCCC(C)C1 (configuration not stated),103,108,nt,-1
CN1C(=O)c2ccc(NC(=O)c3c(F)c(F)c(F)c(F)c3F)cc2C1=O,103,99,i,-9
CCn1cc(CCC(=O)NC(C)C)c2ccccc21,102,103,128,-20
CCOc1ccc(OCCC(=O)Nc2ccc(S(=O)(=O)N(C)C)cc2)cc1,100,102,-6,-14
CC1CCCCN1c1ccc(C(F)(F)F)cn1 (configuration not stated),100,106,-5,nt
COc1ccc(CN(C)C(=O)CSc2ccccc2)cc1,102,103,-21,-21
CCCCN(C)S(=O)(=O)c1ccc2c(c1)CCCC(=O)N2,99,100,7,7
C=CC[N+](C)(C)CC#Cc1ccccc1,98,102,8,-22
O=C(OCc1nnc(-c2ccc(Cl)cc2)o1)c1ccc2c(c1)C(=O)N(Cc1ccco1)C2=O,104,104,-2,-10

New compounds follow.
compound,Polio RdRp inh,Polio RdRp inh intensity,Mtb MbtI inh,Mtb MenB inh
N#Cc1ccsc1NC(=O)COC(=O)CSc1nnc(-c2ccc(F)cc2)n1-c1ccccc1,152,179,7,-1
Cc1ccc(S(C)(=O)=NS(=O)(=O)c2sc3ccc(Cl)cc3c2C)cc1 (configuration not stated),105,115,-13,6
CCOC(=O)c1nnn2c1nc(Sc1nnc(-c3ccncc3)n1C)c1ccccc12,105,107,8,13
CCOC(=O)C1=C(N)Oc2c(C)cc(Cl)cc2C1C(C#N)C(=O)OCC (configuration not stated),103,101,60,-15
COCCCN=C(c1ccco1)n1c(=S)nc(-c2ccco2)n(CCCOC)c1=S,99,114,52,-58
CCCCN(CC)S(=O)(=O)c1ccc2[nH]c(=O)cc(C(=O)NCCc3ccc(Cl)cc3)c2c1,99,100,-6,-4
Cc1cccc(OCc2nnc(SCc3cc(=O)oc4ccc5ccccc5c34)o2)c1,107,116,-11,-18
CCC1(CC)C(=O)N(C)C(=O)NC1=Nc1ccccc1,102,102,-19,-4
N/C(=N\OC(=O)COc1ccc(Cl)cc1Cl)c1ccncc1,101,103,-4,2
CCCCn1c(CCC(=O)O)nc2cc(S(=O)(=O)N(C)C)ccc21,100,104,-8,1
Cc1cc(=O)nc2c3ccccc3n(C(C)C(=O)N(C)Cc3ccccc3)n12 (configuration not stated),102,105,27,3
COC(=O)C(C)Sc1nnc(-c2c[nH]c3ccccc23)n1-c1ccc(OC)cc1 (configuration not stated),103,108,-1,-12
Nc1ccc(OCC2CCCO2)cc1 (configuration not stated),102,102,37,-54
O=C(NCc1ccco1)C(c1ccccc1)N(Cc1ccco1)C(=O)Cn1nnc2ccccc21 (configuration not stated),102,103,1,34*
C(=N\n1cnnc1)/C1CCCCC1,105,109,-8,nt
O=C1CCSc2c1cccc2C(=O)NCc1ccccc1,104,97,-3,-31
CC1(NC(=O)c2cn(-c3ccccc3)nc2-c2cccnc2)CCS(=O)(=O)C1 (configuration not stated),nt,nt,-15,-18
CCCCN1C(=O)c2ccc(Br)cc2C1=O,102,99,-8,-3
Oc1ccc2c(c1)OCCO2,102,98,-16,-7
COc1ccc2c(c1)-c1nc(C)sc1CC2,98,100,-5,12

Part of the list above in order of molecular weight, falling:
compound,Polio RdRp inh,Polio RdRp inh intensity,Mtb MbtI inh,Mtb MenB inh
Cc1ccc(S(C)(=O)=NS(=O)(=O)c2sc3ccc(Cl)cc3c2C)cc1 (configuration not stated),105,115,-13,6
CCCCn1c(CCC(=O)O)nc2cc(S(=O)(=O)N(C)C)ccc21,100,104,-8,1
CCCCN1C(=O)c2ccc(Br)cc2C1=O,102,99,-8,-3
CCC1(CC)C(=O)N(C)C(=O)NC1=Nc1ccccc1,102,102,-19,-4
Nc1ccc(OCC2CCCO2)cc1 (configuration not stated),102,102,37,-54

(next part)
compound,Polio RdRp inh,Polio RdRp inh intensity,Mtb MbtI inh,Mtb MenB inh
Cc1cc(=O)n(Cc2ccccc2Cl)c(O)c1C#N,104,107,0,-6
COc1ccc(C2=CC(c3ccc(C)o3)n3nnnc3N2)cc1OC (configuration not stated),108,121,45,-98
CN(C(=O)COC(=O)C12CC3CC(CC(C3)C1)C2)C1CCS(=O)(=O)C1 (configuration not stated),103,106,-4,7
COC(=O)c1cn(C(=O)COc2ccccc2Cl)c2ccccc12,96,95,nt,-12
Cc1ccc2c3c(ccc2n1)NC1=C(C(=O)CCC1)C3C1CC=CCC1 (configuration not stated),104,110,nt,-33
N#Cc1cc2c(cc1C#N)N(Cc1ccccc1)CCN2Cc1ccccc1,101,95,73,-33
Cn1c(N)cc(=O)n(C)c1=O,108,107,-22,-17
COC(=O)c1ccc(NC(=O)COc2cccc3c2CCNC3=O)cc1,101,102,-10,-33
COc1cc(CO)ccc1OCc1cc(Cl)cc2c1OCOC2,108,107,1,-3
Cc1c(O)nc(SC2CC(=O)N(c3ccccc3)C2=O)[nH]c1=O (configuration not stated),101,105,22,-31
c1ccc(C2=NNC(c3ccccc3)=NN2)cc1,101,104,nt,-18
O=C1CSC(=Nc2ccccc2)N1,101,98,-6,nt
CC(C)CN1C(=O)/C(=C/C=C/c2ccccc2)SC1=S,102,101,-3,-16
O=C(CCC(C(=O)O)N1C(=O)c2ccccc2C1=O)Nc1ccc2c(c1)COCO2 (configuration not stated),104,104,-6,-12
COc1ccc(-c2cc(C(=O)N3CCN(C(c4ccccc4)c4ccccc4)CC3)no2)cc1,100,103,-3,-25
COc1ccccc1/C=C1\SC(=O)N(CCC(=O)N2c3ccccc3Sc3ccccc32)C1=O,100,106,-3,-6
Cc1cccc(Nc2nc3nonc3nc2Nc2cccc(C)c2C)c1C,105,103,0,-31
COC(=O)c1sc2nc(C)cc(C(F)(F)F)c2c1N,107,103,nt,-4
COc1ccc(NC(=O)CSc2nc3ccncc3[nH]2)cc1,100,101,10,3
Oc1ccc(N=Cc2c[nH]c3ccccc23)cc1,96,96,66,-24

Remaining list, next part
compound,Polio RdRp inh,Polio RdRp inh intensity,Mtb MbtI inh,Mtb MenB inh
Cc1cccc(N2COc3ccc(Br)cc3C2)c1,103,103,1,-1
CCOC(=O)c1ccc(-n2c(O)c(/C=N/N3CCOCC3)c3ccccc3c2=O)cc1,103,109,-3,-15
Cc1cc(C)c(NC(=O)C2CC3c4ccccc4C2C2C=CC=CC32)c(C)c1 (configuration not stated),105,102,nt,-22
CCc1ccc2nc(Nc3nc4ccccc4c(=O)[nH]3)nc(C)c2c1,102,104,-4,-2
N#CCCSc1nnc(-c2ccc(Br)cc2)n1CCc1ccccc1,99,95,-10,-32
CCCCn1c(SCC(=O)N2CCCC2)nc2ccccc2c1=O,100,100,4,-187
CC(=O)n1c(C#N)c(O)c2ccccc21,102,104,33,-40
O=C(Oc1ccc(F)cc1)c1nsc(Cl)c1Cl,88*,96*,nt,-39
CC(Cc1c[nH]c2ccccc12)N(Cc1ccccc1)Cc1ccccc1 (configuration not stated),101,104,-1,-20
Cc1ccc(NC(=O)Cn2c(=O)oc3cc(S(=O)(=O)NC4CCCC4)ccc32)cc1,100,107,-2,-2
CSc1nsc(SC)c1-c1nn[nH]n1,105,102,4,-28
O=C(NCC1CCCC(CNC(=O)Nc2ccc3c(c2)OCO3)C1)Nc1ccc2c(c1)OCO2 (configuration not stated),100,108,-7,-10
CC12CN(C(=O)c3ccccc3)CC(C)(CN(C(=O)c3ccccc3)C1)C2,100,103,-14,14
COc1ccc(-c2cc(C(F)(F)F)n3nc(C(=O)NCCN4CCOCC4)cc3n2)cc1,105,98,nt,-8
O=c1c(C=NCCc2ccccc2)c(NCCc2ccccc2)nc2ccccn12,104,104,0,-1
Nc1ccncc1Cl,100,110,-8,3
Cc1ccc(-c2noc(CNC(=O)CC3CCCCC3)n2)cc1,98,103,-5,-24
O=C(N=Nc1c(O)[nH]c2ccccc12)C1C2CCCCC21 (configuration not stated),101,102,-9,-63
COCCn1c(C)cc(/C=C(\C#N)C(=O)C(C)(C)C)c1C,105,107,-2,-217
O=C(/C=C/N1CCOCC1)c1csc(-c2ccc(C(F)(F)F)cc2)n1,104,107,-1,-16

Continuation.
compound,Polio RdRp inh,Polio RdRp inh intensity,Mtb MbtI inh,Mtb MenB inh
Cc1cc(C)c(C#N)c(SCc2cccnc2)n1,102,103,12,-29
Nc1nnc(CCc2ccccc2)c(=O)n1N,100,101,0,16
CCNC(=O)c1c(C)[nH]c(C(=O)OCC)c1C,101,109,-1,4
O=C(CCN1CCOCC1)Nc1ccc(Cl)cc1,100,103,-6,-20
Cc1onc(-c2ccccc2)c1C(=O)N1CCOCC1,101,103,-2,0
Cc1ccccc1N1CCN(C(=S)c2ccc(N(C)C)cc2)CC1,101,103,12,-2
COc1cc(N2C(=O)c3ccccc3C2=O)c(Cl)cc1C(=O)OCC(=O)N1CCCC1,105,107,-6,-23
N#Cc1cc2c(=O)n3ccccc3nc2n(CCc2ccccc2)c1=O,103,106,36,-12
O=C(NO)c1cccs1,99,90,6,nt
CN(C(=O)Cn1c(=O)sc2ccccc21)c1nnc(SCc2ccccc2)s1,99,100,4,3
CN(C)CCOC(=O)C12CCC3CC(CC(C3)C1)C2,101,102,-8,-4
O=C(Cn1cc(/C=C2\C(=O)NC(=O)N(Cc3ccccc3)C2=O)c2ccccc21)NCc1ccco1,77,199,17,-45
O=C1NC(=O)C2(C(=O)N1)C(c1ccc(Cl)cc1)NC(=S)NC2c1ccc(Cl)cc1 (configuration not stated),99,105,-9,-16
COC(=O)/C=c1/sc2n(c1=O)C(C)=CC(C)(C)N=2,103,105,-4,-38
O=C(NCc1ccccc1)C1CCN(S(=O)(=O)N2CCCCCC2)CC1,101,98,-9,-11
